# MARV entry inh – qHTS for inhibitors of binding or entry into cells for Marburg Virus; Marburg virus pseudotyped entry inhibition, cell reporter; control for the full effect not named in the record; about a third of the inactives were read at about 46 µM; Potency, µM (series often up to 37.8 µM), for inactives: top-dose activity change, negative = inhibition, most hits filed as inhibitors; 300,000 compounds, 1.8% hits; active = well fitted inhibition curve with a large enough effect; inconclusive = small, poorly fitted or top-dose-only effect, or effect the other way; inactive = flat fitted curve, though single readings scatter; tested in HEK293 cells; about a fifth of its hits are not listed in these tables; further: on the % scale 0 is the no-effect control and ±100 the full control effect; luciferase read-out
# SARS PLpro yeast – qHTS of Yeast-based Assay for SARS-CoV PLP; S. cerevisiae expressing SARS-CoV PLpro, growth rescue; control for the full effect not named in the record; Potency, µM (top dose mostly 32.9 µM), for inactives: at the top dose activity, positive = growth rescue; 330,000 compounds, 0.19% hits; AID 485353, 2010; active means well fitted rising curve with a large enough effect; inconclusive means small, poorly fitted or top-dose-only effect; inactive means no such curve, though single readings can be large or run the other way; further: 0% is about no effect; nearly all actives have a fitted effect of over 55% in size; growth read by luminescence after 48 h
# Cruzain inh noDet – qHTS Assay for Promiscuous and Specific Inhibitors of Cruzain (without detergent); AID 1476, 2009; Potency, µM, for the others: max response, negative = inhibition, usual class: inhibitors; purified cruzain, Z-FR-AMC fluorescence, no detergent; Cruzipain (Trypanosoma cruzi), P25779; 200,000 compounds, 2.3% hits;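 further: plate controls were enzyme without inhibitor for no effect and buffer without enzyme for full effect; nearly all actives have a fitted effect of over 40% in size; top concentration of the series not given in the record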
# Target sequence (P25779 123-467 limits assumed): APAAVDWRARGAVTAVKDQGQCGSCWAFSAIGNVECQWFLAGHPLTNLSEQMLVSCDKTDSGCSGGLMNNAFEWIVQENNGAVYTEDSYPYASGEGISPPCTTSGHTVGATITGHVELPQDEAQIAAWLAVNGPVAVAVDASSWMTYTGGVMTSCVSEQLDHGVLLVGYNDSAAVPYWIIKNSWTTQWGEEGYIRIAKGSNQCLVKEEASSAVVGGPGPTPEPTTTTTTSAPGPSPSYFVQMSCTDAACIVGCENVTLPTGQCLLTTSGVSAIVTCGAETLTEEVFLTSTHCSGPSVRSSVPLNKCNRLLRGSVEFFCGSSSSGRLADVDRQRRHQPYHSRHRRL
#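 Detergent-free condition (0.00005% Triton X-100) in acetate buffer pH 5.5 with DTT. 1.5 nM enzyme and compound were pre-mixed 15 min, then 2 uM Z-FR-AMC substrate added; reaction progress from fluorescence change between first and third reads (60 s).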
# StopGo reporter – High Throughput Screening for Foot and Mouth Disease Virus Antivirals; AID 1159524, 2015; Potency, µM (doses to about 57.9 µM), inactives show top-dose signal change, negative = less light; human cells with a luciferase reporter of 2A StopGo recoding; control for the full effect not named in the record; 410,000 compounds, 1.2% hits; active = well fitted falling curve with a large enough effect; inconclusive = small, poorly fitted or top-dose-only effect; inactive = no such curve, though single readings can be large or run the other way; tested in HEK293T cells; further: on the % scale 0 is the no-effect control and ±100 the full control effect; nearly all actives have a fitted effect of over 45% in size; luciferase light after 4 h
# NS1 inh – qHTS Assay for Inhibitors of Influenza NS1 Protein Function; Potency, µM (top dose mostly 46.1 µM), without a hit: top-dose activity, positive = more growth; 270,000 compounds, 0.4% hits; S. cerevisiae slowed by influenza A NS1, growth recovery by OD600; active means well fitted rising curve with a large enough effect; inconclusive means small, poorly fitted or top-dose-only effect; inactive means no such curve, though single readings can be large or run the other way; further: nearly all actives have a fitted effect of over 50% in size
#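 A cell-based growth assay was used: compounds that relieve NS1-induced slow growth of budding yeast raise OD600. Assay medium was yeast nitrogen base with ammonium sulphate and -URA supplement, pH 6.0, with 2% galactose.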
# RE007 growth inh – qHTS Assay for Inhibitors of the HIV-1 protein Vpr | S. pombe RE007 Vpr strain, BacTiter-Glo ATP luminescence, 24 h; control for the full effect not named in the record | Potency, µM (doses to about 92.2 µM), for the others: at the top dose activity change, negative = less growth | 360,000 compounds, 0.21% hits; active = well fitted falling curve with a large enough effect; inconclusive = small, poorly fitted or top-dose-only effect; inactive = no such curve, though single readings can be large or run the other way;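 further: on the % scale 0 is the no-effect control and ±100 the full control effect; nearly all actives have a fitted effect of over 50% in size; the assay follows cell death caused by Vpr and the record does not say whether a fall means rescue or toxicity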
#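 Fission yeast strain RE007, carrying one chromosomally integrated HIV-1 vpr copy, was seeded at OD 0.01 in PMG+AL medium with 23 nL pinned compound. After 24 h at 30 °C and 99% humidity, viability was read by BacTiter-Glo luminescence.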
# Cruzain Triton – qHTS Assay for Promiscuous and Specific Inhibitors of Cruzain (with detergent). Cruzipain (Trypanosoma cruzi), P25779. purified cruzain, Z-FR-AMC fluorescence, 0.01% Triton. Potency, µM, for inactives: max response, negative = inhibition, actives largely listed as inhibitors. 200,000 compounds, 0.43% hits. AID 1478, 2009;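 further: plate controls were neutral wells for no effect and buffer without enzyme for full effect; nearly all actives have a fitted effect of over 40% in size; top concentration of the series not given in the record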
#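 Enzyme 1.5 nM, Z-FR-AMC 2 uM, NaOAc 100 mM pH 5.5, DTT 5 mM, Triton X-100 0.01%; 15 min RT compound preincubation; kinetic ex360/em450, 60 s delta.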
# Lassa entry inh – qHTS for Inhibitors of binding or entry into cells for Lassa Virus; AID 540256, 2011; Lassa virus pseudotype entry inhibition, cell reporter; control for the full effect not named in the record; 300,000 compounds, 1.2% hits; Potency, µM (series often up to 37.9 µM), inactives show top-dose activity change, negative = inhibition, actives largely listed as inhibitors; active means well fitted inhibition curve with a large enough effect; inconclusive means small, poorly fitted or top-dose-only effect, or effect the other way; inactive means flat fitted curve, though single readings scatter; tested in HEK293 cells; further: on the % scale 0 is the no-effect control and ±100 the full control effect; nearly all actives have a fitted effect of over 50% in size; luciferase read-out
# Numbers without * were called inactive; ? = inconclusive; . = no result given; & = joins results of further samples; [ ] = another dose, or the depositor's remark. Unless noted, the call rests on the fitted dose curve; in most records, active means well fitted curve in the direction sought with a large enough effect; inconclusive means small, poorly fitted or top-dose-only effect, or another doubt; inactive means no such curve, though single readings can be large; an effect the other way counts as inactive or inconclusive. Potency means the concentration at half of the fitted maximal effect.
entry	SMILES	NS1 inh	Lassa entry inh	Cruzain inh noDet	RE007 growth inh	Cruzain Triton	SARS PLpro yeast	MARV entry inh	StopGo reporter
1	Cc1ccc(NC(=O)Cn2nc(C)cc2C)cc1	5%	0%	-7%	10%	0.2%	-7%	11%	0%
2	CCOC(=O)C1=NNC(C(=O)c2ccc(C)cc2)C1c1ccc(C)cc1 (stereo unspecified)	-30%	?	-16%	-6%	-9.6%	-22%	?	-20%
3	Cc1cc(CNC(=O)COc2ccc(F)cc2)c2ccccc2n1	2%	.	.	0%	.	-1%	.	?
4	Cc1cccc(NC(=S)NC(=O)/C=C/c2ccccc2)n1	3%	28%	.	-26%	.	-1%	?	-5%
5	Cc1ccc(CCNC(=O)c2ccc(CNS(=O)(=O)c3ccccc3)cc2)cc1	.	?	-15%	.	-2.2%	.	10%[46.1 µM]	0%
6	CC(C)(C)n1nnnc1C(c1ccc(F)cc1)N1CCC(C(N)=O)CC1 (stereo unspecified)	0%	2%	.	3%	.	0%	20%	-15%
7	CC(C)(C)c1cc(C(=O)N2CCN(c3ncccn3)CC2)ccn1	0%	-5%	9%	2%	6.3%	.	-2%	-16%
8	COc1ccc(CN2CCN(CCc3ccccc3)C(CCO)C2)c(Cl)c1OC (stereo unspecified)	-6%	.	.	10%	.	-2%	.	-10%
9	COCCn1c(SC(C)C(=O)NCC2CCCO2)nc2sc3c(c2c1=O)CCC3 (stereo unspecified)	.	30%	.	-9%	.	3%	-25%	-4%
10	CC1(C)CC(=O)C2=C(C1)Nc1ccccc1N1C(=O)c3ccccc3C21 (stereo unspecified)	-3%	-2%	2%	-5%	1.4%	3%	-9%	.
11	CCCNC(=O)CN(c1cccc(F)c1)S(C)(=O)=O	-6%	3%	-7%	-11%	-0.8%	7%	?	8%
12	O=C(O)c1cccc(NC(=S)NCc2ccccc2)c1	1%	-8%	.	6%	.	-1%	-9%[46.1 µM]	0%
13	CCCOc1ccc(N2C(=O)C3C4C=CC(CC4)C3C2=O)cc1 (stereo unspecified)	3%	.	.	39%	.	0%	.	-11%
14	O=C(c1ccc(CS(=O)(=O)c2ccc(Br)cc2)o1)N1CCCC1	7%	.	-15%	12%	-1.5%	4%	.	?
15	COc1ccccc1C(=O)N1CC(=O)Nc2ccc(F)cc2C1c1ccccc1 (stereo unspecified)	-5%	38%	.	0%	.	-1%	.	-18%
16	CC(=O)NS(=O)(=O)c1ccc(NC(=S)NC(=O)Cc2ccccc2)cc1	3%	.	.	3%	.	0%	.	-3%
17	CNC(=O)/C(C#N)=C/c1ccc(-c2ccccc2[N+](=O)[O-])o1	-8%	-25%[46.1 µM]	.	-7%	.	-2%	?	8%
18	Cc1ccc(NC(=O)Nc2nnc(Cc3ccc([N+](=O)[O-])cc3)s2)cc1	-1%	-4%	-19%	-6%	0.1%	-3%	-7%	41%[activator]
19	COC(=O)c1cc(-c2ccc(Br)cc2)n[nH]1	-12%	5%	-4%	-27%	1.7%	-4%	15%	23%
20	Cc1ccc(C(=O)NC(=S)NNS(=O)(=O)c2ccc(C)cc2)cc1	-67%	-2%	-24%	-15%	?	-12%	4%	-5%
21	Cc1ccc2c(c1)C(O)(CC(=O)c1ccc3c(c1)OCO3)C(=O)N2 (stereo unspecified)	2%	-1%	8%	2%	3.3%	3%	22%	18%
22	CSCCC(NC(=O)c1ccc(Cl)c([N+](=O)[O-])c1)C(=O)N1CCN(C/C=C/c2ccccc2)CC1 (stereo unspecified)	.	?	.	6%	.	1%	?	?
23	NC(=O)C1CCN(C(=O)CNC(=O)c2ccccc2)CC1	0%	19%	.	1%	.	3%	?	8%
24	COc1ccccc1NC(=O)c1ccc(NC(=O)CN2CCCC2)cc1	-1%	12%[46.1 µM]	.	7%	.	-3%	-7%[46.1 µM]	-4%
25	O=C(NNC(=O)c1cc(Br)c(Br)s1)c1csc(N2CCOCC2)n1	.	5%	.	8%	.	0%	2%	3%
26	O=C(/C=C/Nc1ccc(F)cc1F)c1ccc(Br)cc1	.	7.1µM*	.	2%	.	.	?	13%
27	COc1ccc(-c2ccc(-c3noc(-c4ccccc4F)n3)c(OC)n2)cc1	7%	7%	-30%	1%	0.6%	-2%	?	-8%
28	O=C(CC12CC3CC(CC(C3)C1)C2)N/N=C\c1ccc[nH]1	.	-9%	.	7%	.	0%	18%[46.1 µM]	14%
29	Cc1nn(C)c(C(=O)NNC(=S)NCc2ccco2)c1Br	?	.	.	16%	.	0%	.	?
30	CC(C)C(=O)Nc1nnc(S(=O)(=O)N(C)Cc2ccc(F)cc2)s1	.	13%[46.1 µM]	-28%	.	-1.2%	.	.	-2%
31	COc1ccc(C(=O)C2CCCN(Cc3cnc(C)s3)C2)c(OC)c1 (stereo unspecified)	-5%	?	.	-4%	.	-2%	-9%[46.1 µM]	?
32	CC[n+]1c(/C=C/c2ccc(N(C)C)cc2)ccc2ccccc21	-35%	9.2µM*	-8%	13µM*	-14%	-131%	1.6µM*	6.3µM*
33	CN(C)c1ccc(C(CNS(=O)(=O)c2cccc([N+](=O)[O-])c2)N2CCOCC2)cc1 (stereo unspecified)	.	-13%	.	2%	.	4%	-1%[46.1 µM]	-12%
34	O=C(CN1CCN(c2ccccc2F)CC1)Nc1ccc2c(c1)CCC2	-37%	8%[46.1 µM]	4%	2%	-3.0%	-12%	?	-7%
35	CCN(CC)S(=O)(=O)c1ccc2c(c1)N(CC(=O)N(CCc1ccncc1)C(C)C)C(=O)CO2	.	-12%	.	5%	.	3%	1%	8%
36	Cn1cc(/C=C/C(=O)N2CCCC(C(=O)c3cccc4ccccc34)C2)cn1 (stereo unspecified)	0%	.	.	-4%	.	0%	.	0%
37	CCOC(=O)c1cc(C(O)(C(=O)OC)C(F)(F)F)c(/N=C/N(C)C)o1 (stereo unspecified)	5%	-21%	13%	3%	0.1%	7%	21%[46.1 µM]	6%
38	Cc1ccc(O)c(C(=O)CC(=O)c2ccc(Cl)cc2)c1	-99%	.	.	-10%	.	-5%	.	18%
39	Cc1ccc(C)c(CN2C(=O)c3ccccc3S(=O)c3ccc(C(=O)NCc4ccco4)cc32)c1 (stereo unspecified)	.	?	-20%	.	-3.0%	.	?	-22%
40	O=C(CSc1ccc(Br)cc1)NCC1(N2CCCCC2)CCCCC1	.	26%	.	-12%	.	.	?	-22%
41	Cc1nn(CCC(N)=O)c2nc(-c3cccs3)cc(C(F)(F)F)c12	18%	?	?	7%	-9.5%	0%	?	?
42	CCOc1ccccc1C1CC(=O)Nc2c1c(=O)n(C)c1ncnn21 (stereo unspecified)	.	13%[46.1 µM]	1%	.	-0.3%	.	-1%[46.1 µM]	-3%
43	CCOc1ccccc1NC(=S)N1CCN(c2nc(-c3cccc(OC)c3)cs2)CC1	22%	.	.	12%	.	6%	.	-8%
44	COc1ccc(C(=O)Nc2ccccc2N2CCOCC2)cc1S(=O)(=O)N1CCCC1	.	-15%	.	17%	.	-12%	-6%	16%
45	CCOC(=O)C1CCN(Cc2nnnn2CCc2ccccc2)CC1	2%	-19%	.	6%	.	1%	18%	-1%
46	CCC1C(=O)NCCN1C(=O)c1cc(COc2cc(C)ccc2C)on1 (stereo unspecified)	-19%	22%[46.1 µM]	.	7%	.	-1%	4%[46.1 µM]	10%
47	O=C(Nc1cccc(NC(=O)c2sc3ccccc3c2Cl)c1)c1ccco1	-1%	0%	-27%	6%	-7.8%	-1%	?	0%
48	CC1(C)CSC(=NCCc2ccccc2)N1	-6%	?	.	1%	.	1%	28%[46.1 µM]	0%
49	COc1cccc(C(O)c2nccn2Cc2ccccc2)c1OC (stereo unspecified)	3%	.	.	-1%	.	-1%	.	-11%
50	O=C(CCNS(=O)(=O)c1cccc2nsnc12)NC1CCCc2ccccc21 (stereo unspecified)	-2%	-4%	-11%	-3%	-7.9%	-7%	-29%&-29%[46.1 µM]	12%

# Looked up one by one from the list above (six):
entry	SMILES	NS1 inh	Lassa entry inh	Cruzain inh noDet	RE007 growth inh	Cruzain Triton	SARS PLpro yeast	MARV entry inh	StopGo reporter
47	O=C(Nc1cccc(NC(=O)c2sc3ccccc3c2Cl)c1)c1ccco1	-1%	0%	-27%	6%	-7.8%	-1%	?	0%
46	CCC1C(=O)NCCN1C(=O)c1cc(COc2cc(C)ccc2C)on1 (stereo unspecified)	-19%	22%[46.1 µM]	.	7%	.	-1%	4%[46.1 µM]	10%
42	CCOc1ccccc1C1CC(=O)Nc2c1c(=O)n(C)c1ncnn21 (stereo unspecified)	.	13%[46.1 µM]	1%	.	-0.3%	.	-1%[46.1 µM]	-3%
43	CCOc1ccccc1NC(=S)N1CCN(c2nc(-c3cccc(OC)c3)cs2)CC1	22%	.	.	12%	.	6%	.	-8%
50	O=C(CCNS(=O)(=O)c1cccc2nsnc12)NC1CCCc2ccccc21 (stereo unspecified)	-2%	-4%	-11%	-3%	-7.9%	-7%	-29%&-29%[46.1 µM]	12%
44	COc1ccc(C(=O)Nc2ccccc2N2CCOCC2)cc1S(=O)(=O)N1CCCC1	.	-15%	.	17%	.	-12%	-6%	16%

# (continued)
entry	SMILES	NS1 inh	Lassa entry inh	Cruzain inh noDet	RE007 growth inh	Cruzain Triton	SARS PLpro yeast	MARV entry inh	StopGo reporter
51	NS(=O)(=O)c1cccc(NC(=O)CSc2ncnc3ccccc23)c1	1%	.	.	3%	.	1%	.	?
52	Clc1ccc(C(c2nnnn2C2CCCC2)N2CCN(c3nc4ccccc4s3)CC2)cc1 (stereo unspecified)	.	-14%	.	-2%	.	.	?	6%
53	COc1ccc(N2C(=O)CSC2c2ccc3c(c2)OCO3)cc1 (stereo unspecified)	-1%	11%	-4%	-10%	-1.5%	3%	-24%	-4%
54	COc1ccccc1NC(=S)NC(=O)/C=C/c1ccco1	9%	3%	-29%	-17%	-21%	17%	4%	-4%
